Mtb hypoxia rep: Mtb hypoxia fluorescent reporter inhibition; actives 0.1% (n = 300,000); fluorescence inhibition, % (concentration not given with the values); AID 1159583; M. tuberculosis hypoxia-regulated fluorescent reporter, fluorescence;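 active means 35 to 45% if threefold the growth effect, above 45% if 1.5-fold the growth effect; inactive means the rest, general growth blockers included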;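 further: wells of about 50 µL received 100 nL stock; 0% = vehicle wells and 100% = reference inhibitor wells; whole bacteria with a GFP reporter of the hypoxia response; strong numbers were not always called active; many hits fall short of the cut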
PrP 5UTR inh: inhibition of PrP 5' UTR reporter expression; cell-based PrP 5' UTR mRNA reporter, plate reader; inhibition, % (test concentration not listed); actives 0.35% (n = 340,000); AID 488862;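 active means every replicate at 50% or more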;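 further: 0 = median of the neutral control wells; tested in H4 reporter cells; numbers are from one replicate; inactives centre near -14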
BJeLR viability: BJeLR cell viability loss | AID 1554 | inhibition, % (no concentration beside the values) | BJeLR (HRASV12) viability, CellTiter-Glo ATP luminescence, 48 h; reference of the scale not given here | actives 0.17% (n = 300,000);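 active means replicate mean above 50%; inconclusive means above 50% but judged a plate artefact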;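 further: 50 nL library stock added to about 25 µL; numbers are from one replicate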
Sa RN4220 lethal: kills Staphylococcus aureus RN4220 | inhibition, % (no concentration beside the values) | S. aureus RN4220 growth, OD600, 16 h | actives 0.33% (n = 330,000) | AID 1259311;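 active means z-score of -3 or lower and OD600 up to 0.18 on both plates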;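 further: plate controls were untreated cells for no effect and reference antibiotic for full effect; stock transfer was 100 nL into about 80 µL; one replicate is shown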
ugtP null kill: growth inhibition of S. aureus ugtP deletion strain. S. aureus RN4220 ugtP deletion, OD600 growth, 16 h; some inactives read as strong as hits. growth inhibition, % (concentration not given with the values). actives 0.54% (n = 330,000);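 active means z-score under -3 and OD600 up to 0.15 on both plates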;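 further: plate controls were untreated wells for no effect and antibiotic for full effect; wells of about 80 µL received 100 nL stock; the first replicate is given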
Autofluor counter: flagged as autofluorescent in microsphere protease counterscreen; compound autofluorescence counterscreen, microsphere flow cytometry; active compounds read high; fluorescence intensity (no concentration beside the values); actives 3.1% (n = 360,000); AID 624483;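 active means at least 3 SD above the mean of all compounds, about 16000 in these data; inconclusive means too few beads counted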;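 further: 100 nL of 1 mM stock went into each well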
Mtb hypoxia rep growth: second read-out of Mtb hypoxia rep, no call of its own (marks repeat the call); growth inhibition, %; measured here: M. tuberculosis growth (absorbance);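 0% = vehicle and 100% = reference antibiotic; read after six days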
* marks the source's active call; other numbers are inactive results; ? = inconclusive; · = no result given.

SMILES	Mtb hypoxia rep	Mtb hypoxia rep growth	PrP 5UTR inh	BJeLR viability	Sa RN4220 lethal	ugtP null kill	Autofluor counter
O=C(CN1CCOCC1)c1cccc2ccccc12	·	·	-7	6	2.9	4	4382
O=C(Nc1ccc(Oc2ccccc2)cc1)C1CCN(c2c3c(nc4ncnn24)CCC3)CC1	-6	-6	-3	12	-0.3	2	4491
N#CCCC(CCC#N)(CCC#N)c1cc[n+](CCc2ccccn2)cc1	2	7	-25	12	2.8	5	4362
Cc1ccc2cc(C=O)c(N(C)C)nc2c1	1	3	-5	2	6.6	11	6983
NS(=O)(=O)c1ccc(NC(=O)CN2CCCC2)cc1	11	6	-20	8	7.0	-1	4503
COc1ccc(C(=O)N/N=C/C(=O)c2ccccc2)cc1	·	·	-63	-13	·	·	5761
CC(C)CC1Nc2ccc(C(=O)NCc3ccc4c(c3)OCO4)cc2NC1=O (configuration not stated)	-13	14	4	-4	1.8	-5	3802
CC(=NNC(=O)c1ccncc1)c1cccc(Cl)c1	·	·	-24	·	2.9	4	3818
O=C(N=C1SC2CS(=O)(=O)CC2N1Cc1ccccc1Cl)C1CC1 (configuration not stated)	4	7	-6	-7	1.8	0	5997
COc1ccc(-c2cc(C(=O)NCc3cccnc3)no2)cc1OC	7	6	-20	4	4.1	5	7942
Cc1cccc(C(=O)N2CCN(S(=O)(=O)N3CCCCC3)CC2)c1	6	9	-8	3	2.3	6	5824
CC(C)C(=O)Nc1ccc([N+](=O)[O-])c(C(F)(F)F)c1	3	2	-10	3	9.1	-7	4529
CCC1CCC(C(=O)NC(C(=O)NCCCN2CCCCC2C)C(C)C)CC1 (configuration not stated)	1	8	-20	9	4.0	11	3737
COc1ccccc1-c1nnc(SCC(=O)c2c(N)n(C3CC3)c(=O)[nH]c2=O)o1	3	-2	-19	·	-1.3	-1	8819
CC(=O)C1=C(c2ccccc2)OC(N)=C(C#N)C1c1ccc(O)cc1 (configuration not stated)	-11	1	-11	3	9.8	-8	2761
COc1ccc(C2c3ccc(O)cc3Oc3ncn4nc(-c5ccccn5)nc4c32)cc1 (configuration not stated)	-8	1	·	-18	-1.3	-12	3412
COc1ccc2c(c1)c(=O)oc1c(C)c(OCc3ccc(C(=O)O)cc3)ccc12	·	·	-26	1	·	·	3511
Cc1cccc(N2CCN(C(c3cccs3)c3nnnn3C(C)(C)C)CC2)c1C (configuration not stated)	-5	2	-14	-12	4.7	36	9377
O=C(/C=C/c1ccccc1)N/C(=C/c1ccccc1)C(=O)Nc1cccc(C(=O)O)c1	·	·	-34	-12	·	·	4456
CCC(C)NC(=O)COc1ccc(S(=O)(=O)N2CCOCC2)cc1 (configuration not stated)	13	5	-12	-5	4.1	0	11329
O=C(CCc1ccc(O)cc1)c1c(O)cc(O)cc1O	5	3	-15	-3	1.2	-16	3690
c1ccc(CNc2c3ccccc3nc3ccccc23)cc1	13	9	-32	24	0.9	-5	3188
O=C1CCN(c2ccc([N+](=O)[O-])cc2F)CC1	8	1	-22	-5	3.7	20	3116
Cc1nn(-c2ccccc2)c(C)c1/C=N/NC(=O)CSc1nnc(-c2ccccc2)n1-c1ccc(Cl)cc1	·	·	-11	0	·	·	2617
O=C(Nc1nnc(S(=O)(=O)N2CCCCC2)s1)c1ccc(Cl)cc1	2	10	-9	3	15	9	4964
CCn1c(SCCOc2ccc(Cl)cc2)nnc1-c1cccs1	5	9	-16	-7	20	-11	9053
Cc1cc(C)c(OCC(=O)NCC2CCCO2)c(C)c1 (configuration not stated)	11	19	-25	-3	10	3	4405
Cc1ccc(C(C(=O)NCc2ccco2)N(CCc2ccccc2)C(=O)Cn2nnc3ccccc32)o1 (configuration not stated)	·	·	-12	·	-6.9	-9	4666
COc1ccc(C2C(C(=O)N3CCN(c4ccccn4)CC3)CCC(=O)N2c2ccc(OC)cc2)cc1 (configuration not stated)	-2	2	-23	-2	3.0	2	3092
O=C(c1ccc(Br)cc1)N(C1=NCCCCS1)c1ccccc1	-2	-5	-84	0	-8.8	8	3204
CCN(CC(=O)NCc1ccc(Cl)cc1)C(=O)CSc1ccc(F)cc1	9	16	-7	0	0.9	5	?
CCCCNC(=O)c1ccccc1NC(=O)c1ccccc1N(C)S(C)(=O)=O	12	6	-47	-8	0.2	1	6677
N#CCCN1CCN(S(=O)(=O)c2ccc3c(c2)CCC3)CC1	-5	-1	-9	·	-0.4	0	8904
O=C(NCc1ccc2c(c1)OCO2)c1ccc(Br)s1	·	·	-16	-6	15	-2	3854
Nc1nonc1-n1nnc(C(=O)N/N=C/c2ccco2)c1CSc1ccccc1	·	·	-6	10	·	·	4759
Cc1ccc(NC(=O)Cn2nc(C)c3ccccc3c2=O)cc1	·	·	-21	3	·	·	2857
CC(CC(=O)Nc1ccc(S(=O)(=O)N2CCOCC2)cc1)c1ccccc1 (configuration not stated)	4	7	-31	-4	4.4	8	4903
CC(=O)Nc1ccc2c(c1)n(C)c(=O)n2C	10	2	-1	-2	7.5	8	10644
Cc1ccc2c(c1)cc1c(=O)n(CC(=O)NCCN3CCCC3)nc(C)n12	-1	10	-18	-10	1.9	-2	5075
Cc1cccc(C(=O)OC(C)CN2CCOCC2)c1 (configuration not stated)	5	6	-26	7	2.1	4	3912
Cc1cc(C(=O)NNC(=S)NCC(C)C)cs1	·	·	-31	-13	4.1	2	1946
C=CCNC(=O)COC(=O)c1nc2nccc(C)n2n1	9	-2	-3	-5	-3.9	2	4406
S=C(NC1CCCC1)N1CCN(C/C=C/c2ccccc2)CC1	9	3	0	-5	-0.4	9	2507
O=C(O)c1ccc(COc2ccc3c(c2)CCC3)cc1	5	1	-28	-10	11	-9	5171
Cc1ccc(-c2c[n+](Cc3ccc(Cl)c(Cl)c3)c3n2CCC3)cc1	17	12	-20	3	6.5	11	2535
NC(=O)c1cc(C(=O)c2ccc(Cl)cc2)c[nH]1	-1	1	-1	-3	3.9	-1	2117
N#Cc1ccccc1OCC(=O)NC1CCCCC1	7	-4	-57	·	1.3	1	4006
CCCCC(=O)Nc1ccc2oc(-c3cccnc3)nc2c1	·	·	-39	·	-2.2	-3	2588
CCOC(=O)c1c(-c2cccc([N+](=O)[O-])c2)csc1NC(=O)CCCOc1ccccc1	-5	19	-10	10	1.4	-7	2478
O=C(O)C1=NN(c2cc(Cl)c(S(=O)(=O)O)cc2Cl)C(=O)C1	16	6	-24	·	1.6	7	3085
O=S(=O)(c1ccc2c(c1)OCCO2)N1CCN(Cc2ccccc2)CC1	-2	-6	2	-2	1.8	8	?
CCC/C(=C1/c2ccccc2C(=O)N1c1ccccc1)c1ccc2c(c1)OCO2	15	3	-5	·	-16	54	3376
CCCCNC(=O)Cc1cc(=O)[nH]c(=O)[nH]1	4	3	-17	-6	-7.4	-2	4686
CN1CCN(CC(O)COCc2ccc3c(c2)OCO3)CC1 (configuration not stated)	6	-3	-13	0	0.6	-1	9132
Cc1cc(/C=N/Nc2ncnc(N)c2[N+](=O)[O-])c(C)n1-c1ccccc1	·	·	77*	14	·	·	4421
COc1ccc(C(=O)OCC(=O)Nc2ccc(OC(F)F)cc2)c(OC)c1	1	-3	-21	5	2.1	-1	16151*
COc1ccc(NC(=O)N2CCc3ccccc3C2)c(OC)c1	-5	-2	-21	-3	-2.0	-1	6193
O=C(CN(c1cccc(C(F)(F)F)c1)S(=O)(=O)c1ccccc1)N1CCOCC1	15	4	-15	-10	4.7	4	4267
Cc1ccc(-c2csc(=S)n2CC(=O)OCC(=O)NC(C)C(C)C)cc1 (configuration not stated)	1	4	4	4	-4.2	0	16450*
CCOC(=O)c1sc2nc(SC)nc(-c3ccc(Cl)cc3)c2c1N	13	5	6	1	2.9	10	3944

Of the compounds above, these have bromine:
SMILES	Mtb hypoxia rep	Mtb hypoxia rep growth	PrP 5UTR inh	BJeLR viability	Sa RN4220 lethal	ugtP null kill	Autofluor counter
O=C(c1ccc(Br)cc1)N(C1=NCCCCS1)c1ccccc1	-2	-5	-84	0	-8.8	8	3204
O=C(NCc1ccc2c(c1)OCO2)c1ccc(Br)s1	·	·	-16	-6	15	-2	3854

Continuation:
SMILES	Mtb hypoxia rep	Mtb hypoxia rep growth	PrP 5UTR inh	BJeLR viability	Sa RN4220 lethal	ugtP null kill	Autofluor counter
O=C(Cn1nnc(-c2ccccc2Cl)n1)N1CCN(S(=O)(=O)c2ccc(Cl)cc2)CC1	·	·	-9	-2	-1.0	3	4954
O=C(NC(=O)c1ccccc1)NC(=O)c1ccccc1	·	·	-21	3	3.6	0	2698
O=C(CN1CCCCCC1)Nc1ccc(Br)cc1Br	·	·	-29	-7	1.2	5	4094
COC(=O)c1ccc(C=NNc2nc3ccccc3[nH]2)cc1	-4	-2	·	·	6.8	8	·
c1ccc(CCNc2ccc3nncn3n2)cc1	10	0	-31	-14	0.8	9	6190
CCOC(C(=O)OCCC[N+](C)(CC)CC)(c1ccccc1)c1ccccc1	-3	4	8	-8	-3.0	-1	9159
COc1ccccc1NC(=O)c1ccc(SCC(=O)NCc2ccccc2Cl)c([N+](=O)[O-])c1	1	-2	-3	-12	0.8	13	2325
CC1CCN(C(=O)COC(=O)c2c[nH]c3ccccc23)CC1	5	-4	-35	·	0.9	3	6364
Cc1ccccc1NC(=O)c1cccc2c1C(=O)N(C1CCCCC1)C2	7	-7	-4	8	2.9	-6	5734
CC(C)OC(=O)c1ccc(NC(=O)CSc2nc3ncccc3[nH]2)cc1	-3	-5	-41	12	-0.4	20	2463
O=C(CN(Cc1ccccc1)S(=O)(=O)c1ccc2c(c1)OCCO2)NN=Cc1ccc(F)cc1	2	-3	·	·	-2.8	-5	·
Cc1ccccc1SCC(=O)OCC(=O)NCc1ccccc1	14	3	-13	·	3.4	6	3530
COc1cc(C=NN=C(N)c2nonc2N)cc(Br)c1OCc1cccc(C)c1	3	0	·	·	1.1	6	·
Cc1cc(=O)oc(C)c1C(=O)Nc1ccc2ncccc2c1	-4	16	-11	1	0.4	-2	4388
COc1cccc(CN(C(=O)c2ccc([N+](=O)[O-])cc2)C2CCS(=O)(=O)C2)c1 (configuration not stated)	-4	3	-16	-14	1.7	4	?
COc1ccc(C=NNC(=O)c2cc(O)c(O)c(O)c2)cc1COc1ccc(C(=O)OCC(C)C)cc1	5	-7	·	·	26	99*	·
O=C1c2oc3ccccc3c(=O)c2C(c2ccc(O)cc2)N1c1nccs1 (configuration not stated)	1	2	1	-4	0.2	0	4164
COc1cc(OC)cc(C(=O)NNC(=S)NC(=O)c2cccnc2)c1	-5	4	-3	4	13	7	5168
CCOC(=O)C(C)Sc1nnc(NC(=O)c2ccc(C)c([N+](=O)[O-])c2)s1 (configuration not stated)	9	-6	-16	·	17	-7	2384
O=C(NCCN1CCOCC1)c1cccc(Cl)c1	4	6	-13	10	3.7	-1	14695
Cc1cc(CN2CCCC(CO)(Cc3cccc(Cl)c3)C2)n[nH]1 (configuration not stated)	4	6	-18	1	3.6	0	2201
CC(C)(C)c1cc(CCC(=O)N2CCC2)cc(C(C)(C)C)c1O	6	15	-1	1	3.8	-5	6214
Cn1nnnc1SCC(=O)NC1CCCC1	1	0	-5	4	5.5	4	5449
O=S(=O)(c1cccc(-c2n[nH]c(=S)n2-c2ccccc2Cl)c1)N1CCOCC1	2	13	-22	·	0.8	7	3931
CCOC(=O)C(C(=O)Cc1ccccc1)c1ccccc1 (configuration not stated)	8	11	-7	·	5.2	5	3917
Fc1c(F)c(F)c(C=NNC(=S)Nc2cccnc2)c(F)c1F	13	16	·	·	1.9	-5	·
CC1CCN(CCCCOc2ccc(F)cc2)CC1	20	8	-17	-7	2.9	2	3582
COc1ccc(OS(=O)(=O)Cc2ccccc2)cc1	2	3	-24	-5	3.0	13	3584
N#Cc1ccc(OCC(=O)N2CCN(S(=O)(=O)c3cccs3)CC2)cc1	·	·	-15	-4	2.0	6	4331
CCOC(=O)[C@@H]1[C@H]2COc3ccc(Br)cc3[C@H]2N2C(=O)N(c3ccc(F)cc3)C(=O)[C@@]12C	·	·	-11	-11	·	·	4111

Compound activity deposited in PubChem by several laboratories.
